Compound activity deposited in PubChem by ICCB-Longwood Screening Facility, Harvard Medical School.
HCMV NEC inh – inhibitors of HCMV UL50-UL53 interaction, biochemical, HTRF. HCMV UL50-UL53 nuclear egress complex (human cytomegalovirus). normalized percent inhibition. inhibition, % (test concentration not listed). 190,000 tested, 0.15% active. AID 1918969, 2023;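 active = both replicates at 50% or more, plus weaker picks with an unusually low signal ratio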;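 also: stock transfer was 100 nL into about 20 µL; 0% = negative control wells and 100% = wells with untagged competitor protein; inactives centre near -12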
Sa growth inh – S. aureus growth inhibition at 42 and 30 °C, primary screen, LtaS inhibitor project, RN4220, two temperatures. OD600, 20 h, 42 °C; stronger effect = lower value. relative growth, % (concentration not given with the values). AID 720641, 2013. 170,000 tested, 0.53% active;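 active = growth at 42 °C up to 50% and 20 or more points under that at 30 °C, or under 10% at both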;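 also: 300 nL library stock went into each well; scaled to the means of positive and negative controls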
GIV-Gai inh – inhibitors of GIV peptide binding to Galpha-i3, primary screen, biochemical, fluorescence polarization, FITC-GIV GBA peptide, rat Galphai3 | 90 min; stronger effect = lower value; scaled: aluminum fluoride 0%, vehicle 100% | 210,000 tested, 0.42% active | percent of control (FP), % (test concentration not listed) | AID 1224905, 2016 | Guanine nucleotide-binding protein G(i) subunit alpha-3 (Rattus norvegicus), P08753;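 active = replicate mean at 85% of control or lower, very high polarization wells dropped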;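 also: wells of about 15 µL received 100 nL stock; the first replicate is given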
Target sequence (P08753 whole entry, looked up): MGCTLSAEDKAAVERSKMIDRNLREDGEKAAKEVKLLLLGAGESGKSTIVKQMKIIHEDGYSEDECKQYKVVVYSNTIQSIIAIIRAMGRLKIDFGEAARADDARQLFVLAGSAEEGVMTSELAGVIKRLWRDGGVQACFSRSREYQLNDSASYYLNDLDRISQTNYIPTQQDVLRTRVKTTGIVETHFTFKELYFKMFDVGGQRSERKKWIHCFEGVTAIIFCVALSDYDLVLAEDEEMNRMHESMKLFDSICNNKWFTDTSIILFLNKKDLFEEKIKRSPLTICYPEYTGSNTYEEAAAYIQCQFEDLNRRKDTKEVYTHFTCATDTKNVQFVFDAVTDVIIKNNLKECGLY
Sa growth inh second temp – also measured in Sa growth inh; calls as there; relative growth, %; measured here: growth at 30 °C;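 optical density after 20 h as mean of two plates; 100% = untreated growth and lower means inhibition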
Active calls of the source: *; . = not tested or not shown; & = joins results of further samples. Hits appear at their usual frequency; any-hit rate near 0.85%.

Each structure is followed by: HCMV NEC inh, Sa growth inh, Sa growth inh second temp, GIV-Gai inh
O=C(Nc1ccccc1)Nc1ccc(Cl)cc1
 : 6, 123, 88, 95
CCN(CC)CCNC(=O)CCn1c(=O)c2cccn2c2cccnc21
 : ., 104, 94, 103
CC(C)NC(=O)COn1nnc2ccc(S(=O)(=O)N(C)C)cc21
 : -22, 82, 82, .
Cc1cc(C)nc(NC(N)=NCc2cccnc2)n1
 : -16, 96, 98, 105
O=c1cc(NCc2ccccc2)c2ccccc2o1
 : -1, 100, 101, 97
Cc1nc(CC#N)cs1
 : -33, 116, 87, .
Cn1c(=O)c(=O)n(C)c2cc(S(=O)(=O)N3CCCC3C(=O)Nc3nccs3)ccc21 (stereo unspecified)
 : 0, 91, 93, 105
O=C(Nc1ccc(Br)cc1)c1cccc(S(=O)(=O)N2CCc3ccccc32)c1
 : 22, 103, 102, 103
O=C(OCCN=C1NS(=O)(=O)c2ccccc21)C1CC(=O)N(c2ccc(Cl)cc2)C1 (stereo unspecified)
 : 0, 99, 78, 104
CC(=O)N1CCc2cc(Br)cc(S(=O)(=O)CCC(=O)N3CCN(c4cccc(C)c4C)CC3)c21
 : -4, 118, 77, 95
O=C(Nc1ccc2nc3n(c(=O)c2c1)CCC3)Nc1ccc(F)cc1F
 : -3, ., ., 98
CCc1cc(=O)n2[nH]c(C(F)(F)F)c(-c3ccccc3)c2n1
 : -14, 88, 44, 100
Clc1ccccc1-c1nnc(CN2CCc3ccccc32)o1
 : 6, 96, 81, 107
Cc1nn(C)c2nc(OCc3ccc(Br)cc3F)cc(C(F)(F)F)c12
 : -5, ., ., 103
O=C(NCc1ccccc1)c1c(O)nc2ccccn2c1=O
 : -27, 72, 44, 97
CCCCCn1c(=O)[nH]c2cc(C(=O)N3CCN(c4cc(Cl)ccc4C)CC3)ccc2c1=O
 : 6, 104, 92, 103
Cc1ccc(-n2ccnc(NCc3cccs3)c2=O)cc1C
 : ., 132, 97, 107
O=C(Cc1csc(NC(=O)c2ccccc2)n1)NCc1ccccc1
 : -22, ., ., 106
CCCCNC(=O)CSc1nc2cc3c(cc2c(=O)n1CCCC(=O)NCc1ccc(OC)cc1)OCO3
 : ., 107, 74, 101
CC1=CC(O)(c2ccccc2)C(N2CCOCC2)N1O (stereo unspecified)
 : 2, 105, 114, 103
Cc1c(Cc2c(F)cccc2Cl)c(=O)oc2cc(O)ccc12
 : 0, 102, 93, 100
O=C(NCCc1ccccn1)c1cnn(-c2ccc(Cl)cc2)c1C(F)(F)F
 : -3, 106, 82, 106
c1nc(Sc2nnnn2C2CC2)c2ccsc2n1
 : 19, 110, 88, .
CCOc1nc(NCCC2=CCCCC2)nc(OCC)n1
 : -16, 78, 89, .
Cc1ccccc1NC(=O)CSc1nc(=O)n(CCN2CCOCC2)c2c1CCC2
 : ., 109, 84, 92
Cc1ccc(Nc2c(-c3ccc(C)cc3)nc3cnccn23)cc1
 : -20, 98, 91, 106
Cc1cc(C)cc(S(=O)(=O)Nc2ccc(-c3ccc(N4CCCC4)nn3)cc2)c1
 : -27, ., ., 104
CCC(=O)NCc1ccc2c3c(cccc13)C(=O)N2
 : -111, 79, 84, .
COc1ccc(CN2C(=O)CC(C(=O)Nc3ccccc3OC)SC2=Nc2ccc(F)cc2)cc1 (stereo unspecified)
 : -28, ., ., 105
CCOc1ccc(C(F)(F)F)cc1NC(C)=O
 : 0, 91, 86, .
Cc1cc(C)c2cc(C(=O)NCCNc3ccc(C(F)(F)F)cn3)[nH]c2c1
 : -2, 94, 83, 102
CC(Oc1ccccc1)C(=O)NN1Cc2ccccc2C1=N (stereo unspecified)
 : -14, 88, 83, .
CC(C)C(=O)NNc1ncccc1C(F)(F)F
 : -6, 103, 95, 106
CN1CCOc2cc(S(=O)(=O)NCCc3ccc(Cl)cc3)ccc21
 : ., 147, 80, 105
Cn1nc(C(C)(C)C)cc1C(=O)NC1CCCCNC1=O (stereo unspecified)
 : 8, 87, 93, 110
O=C(c1ccc2c(c1)C(=O)N(Cc1ccncc1)C2=O)N1CCN(S(=O)(=O)c2ccc(OC(F)(F)F)cc2)CC1
 : -29, 110, 86, .
Cc1cc(C)n(-c2nc3cc(Cl)ccc3nc2NCCN2CCOCC2)n1
 : ., 94, 85, 103
O=C(Nc1ccc2c(c1)OCO2)c1ccc(-c2noc(C3CC3)n2)cc1
 : -34, ., ., 103
O=C(CN1CCCN(Cc2cccc(F)c2)S1(=O)=O)Nc1ccc2c(c1)OCCO2
 : ., 103, 78, 102
CCc1ccccc1Nc1nc(N)nc(COC(=O)CSCc2c(C)noc2C)n1
 : -16, 102, 97, .
CCCn1c(=O)c(C(=O)NCc2ccccc2)c(O)c2ccccc21
 : 2, 97, 90, .
CCn1c(=O)n(CC)c2cc(Nc3nc4ccccc4c4nncn34)c(Br)cc21
 : 7, 101, 96, 99
CNC(=O)CSc1nc2cc(Cl)ccc2c(=O)n1CC1CCCO1 (stereo unspecified)
 : -14, 75, 92, .
CCc1nc2onc(C)c2c(=O)n1CC(=O)O
 : -26, 111, 87, 100
Cc1ccc(-c2ccc(=O)n(CC(=O)NCc3ccccn3)n2)cc1
 : -50, 113, 96, 105
Cc1ccc(COc2ccc(I)cc2)cc1
 : -32, 101, 87, 105
CCOc1ccc(NC(=O)CC2SC(=Nc3ccccc3)N(c3ccccc3)C2=O)cc1 (stereo unspecified)
 : 10, ., ., 108
COc1ccc(CCNC(=O)CSC2=Nc3ccccc3C3=NC(C(C)C)C(=O)N23)cc1OC (stereo unspecified)
 : ., 87, 86, 97
Cc1ccc(C(=O)OCC(=O)Nc2ccc(N3CCOCC3)cc2)cc1
 : -33, 128, 89, .
Cc1cc(-c2noc(-c3ccccc3C)n2)c2ccccc2n1
 : ., 90, 89, 95
CCS(=O)(=O)Nc1ccc(C(F)(F)F)cc1
 : -21, 98, 104, 100
Cc1ccc(C)n1-c1nn(S(=O)(=O)c2cccc(C(F)(F)F)c2)c2cccc(F)c12
 : -21, 94, 98, 103
Cc1ccc(-c2c(C(=O)O)oc(=O)c3ccccc23)cc1
 : ., 127, 100, 112
CCc1nn2c(=O)c(S(=O)(=O)N3CCN(c4ccccc4)CC3)c(C)nc2s1
 : 1, ., ., 107
CCOC(=O)c1sc(-c2ccc3c(c2)CCO3)nc1C
 : -4, 114, 75, 103
COc1ccc(OCC(=O)Oc2cccc(-n3cnnn3)c2)cc1
 : -10, ., ., 103
O=C(c1cnn2c(C(F)F)cc(-c3ccccc3)nc12)N1CCc2ccccc21
 : -2, 113, 87, 101
CCC(C(=O)NCCCN1CCCCC1)N1CCN(Cc2ccc(F)cc2)C(=O)C1=O (stereo unspecified)
 : -36, ., ., 105
COc1ccc(OC)c(CNC(=O)CCn2cnc3onc(-c4cc(F)cc(F)c4)c3c2=O)c1
 : -2, ., ., 104
Cc1nn(-c2ccc(N3CCCCC3)nn2)c(C)c1CCC(=O)NCc1ccc(OC(C)C)cc1
 : ., 98, 92, 97

The results go on:
Each structure is followed by: HCMV NEC inh, Sa growth inh, Sa growth inh second temp, GIV-Gai inh
CC(=O)c1ccc(NC(=O)CSc2nc(C3CCCC3)nc3c2c(=O)n(C)c(=O)n3C)cc1
 : ., 93, 83, 99
CCCCCOC(=O)CSc1ncnc2sc3c(c12)CCC(C)C3 (stereo unspecified)
 : -1, 113, 95, 109
CSc1ncc(C(=O)Nc2ccc(F)cc2F)c(-c2ccccc2)n1
 : ., 105, 94, 101
Cc1ccc(C)n1-c1ccccc1C1C=NNC1=O (stereo unspecified)
 : -52, 103, 93, 106
COc1cccc(N2CC(C)Cn3c2nc2c3c(=O)n(Cc3c(F)cccc3Cl)c(=O)n2C)c1 (stereo unspecified)
 : -10, ., ., 98
Cc1cccc(COC(=O)c2nnn(-c3ccc(Br)c(C)c3)c2C)c1
 : -13, ., ., 99
CCCNC(=O)c1c(C)oc2ncn(CC(C)C)c(=O)c12
 : -37, 93, 90, 106
COc1ccc(-c2noc(CSCC(=O)NC3CC3)n2)cc1
 : -32, 95, 88, 106
COc1ccc(C(=O)NCCc2c(C)[nH]c3c(C)ccc(F)c23)cc1OC
 : 2, 99, 89, 106
CCC(=O)Nc1ccc(NC(=O)c2ccc(OC)cc2OC)cc1
 : 11, 96, 77, 105
CN(C)C(=S)NC(Cc1ccccc1)c1ccccc1 (stereo unspecified)
 : 1, 102, 92, 102
N#Cc1cc(N)ccc1SCc1ccccc1
 : -9, 113, 39, 108
COC(=O)Cc1cc(OC(C)=O)n(-c2ccc(F)cc2)n1
 : -6, 99, 83, .
CCC(CC)C(=O)NCCc1csc(-c2ccc(OC)cc2)n1
 : -12, ., ., 95
O=C(CCCO)N=Nc1c(O)[nH]c2ccccc12
 : -68, 98, 91, 107

Other entries follow.
smiles | HCMV NEC inh | Sa growth inh | Sa growth inh second temp | GIV-Gai inh
COc1ccccc1CNS(=O)(=O)c1cc(-c2cc(C)no2)ccc1C | . | 121 | 101 | 110
CC1CC(NC(=S)NC2CC3C=CC2C3)CC(C)(C)C1 (stereo unspecified) | -25 | 76 | 74 | 102
O=C(Cn1cc(C(=O)c2ccco2)c2ccccc21)NCC1CCCO1 (stereo unspecified) | . | 110 | 85 | 102
O=C1CSC(c2cn(-c3ccccc3)nc2-c2cccc(Br)c2)N1Cc1ccccc1 (stereo unspecified) | -2 | . | . | 91
N#Cc1cnc2ccnn2c1N | -2 | 97 | 96 | 107
Cc1ccc(Cc2nc3ccccc3nc2SCC(=O)N2CCC(C)CC2)cc1 | . | 98 | 90 | 102
CCn1nnc2cc(C(=O)N3CCc4ccccc4C3)ccc21 | 0 | . | . | 103
CC(C)C(=O)OCc1cc(=O)n2nc(C3CC3)sc2n1 | . | 100 | 86 | 122

Compounds above that contain a COOH group (two):
smiles | HCMV NEC inh | Sa growth inh | Sa growth inh second temp | GIV-Gai inh
CCc1nc2onc(C)c2c(=O)n1CC(=O)O | -26 | 111 | 87 | 100
Cc1ccc(-c2c(C(=O)O)oc(=O)c3ccccc23)cc1 | . | 127 | 100 | 112

Additional records follow:
smiles | HCMV NEC inh | Sa growth inh | Sa growth inh second temp | GIV-Gai inh
Cc1cc(C(F)(F)F)n2nc(-c3cccs3)cc2n1 | -2 | 87 | 89 | 105
Cc1ccc(C(=O)N2c3ccccc3CC2C)o1 (stereo unspecified) | -1 | 98 | 106 | 99
Cc1cc(C)cc(-c2nc(-c3ccc4c(c3)[nH]c(=O)c(=O)n4C(C)C)no2)c1 | 21 | . | . | 107
CC1CCC2C(O1)c1ccccc1OC2(C)C (stereo unspecified) | -22 | 90 | 78 | 98
O=C(O)CC(CC(=O)Oc1ccccc1N1CCCCC1)c1ccccc1 (stereo unspecified) | -21 | 100 | 83 | 99
Cc1nn2c3c(cnc2c1-c1ccccc1)C(=O)CC(c1ccc(C(C)C)cc1)C3 (stereo unspecified) | . | 99 | 90 | 97
O=C1C2C3c4ccccc4C(c4ccccc43)C2C(=O)N1O (stereo unspecified) | -24 | 109 | 106 | 89
Cc1cc(C)cc(N2CCCn3c2nc2c3c(=O)[nH]c(=O)n2C)c1 | -27 | . | . | 100

Part of the list above, showing only GIV-Gai inh:
SMILES | GIV-Gai inh
Cc1ccc(C(=O)N2c3ccccc3CC2C)o1 (stereo unspecified) | 99
O=C1C2C3c4ccccc4C(c4ccccc43)C2C(=O)N1O (stereo unspecified) | 89
Cc1cc(C(F)(F)F)n2nc(-c3cccs3)cc2n1 | 105
Cc1cc(C)cc(N2CCCn3c2nc2c3c(=O)[nH]c(=O)n2C)c1 | 100

Further structures follow:
smiles | HCMV NEC inh | Sa growth inh | Sa growth inh second temp | GIV-Gai inh
Cc1ccc(N(Cc2cccs2)C(=O)c2ccccc2Cl)cc1 | -33 | 94 | 80 | 107
COC(=O)c1ccc(NC(=O)CCn2cnnn2)cc1 | . | 111 | 92 | 105
COc1ccc(-c2nnc(SCC(=O)OC3CC(C)CCC3C(C)C)o2)cc1 (stereo unspecified) | -10 | 91 | 89 | .
CCC1CN(C(=O)N2CCC(C(=O)NCCOC)CC2)c2ccccc2O1 (stereo unspecified) | -26 | 124 | 90 | 101
O=C(O)CCNC(=O)c1ccc2c(c1)OCCO2 | -5 | 96 | 93 | .
CCN(C(=O)CSc1nnc(C)s1)c1ccccc1 | -6 | 86 | 94 | 98
CCCN(CC1CC1)Cn1ncn(-c2ccccc2)c1=S | -44 | 78 | 85 | .
c1ccc(-c2nc(-c3cccs3)no2)cc1 | 8 | 108 | 88 | 100
Cc1ccccc1Nc1nc(N)nc(-c2cc3ccccc3o2)n1 | -9 | 102 | 79 | 104
CC1=CC(C)C2C(=O)N(c3ccc(C(=O)O)cc3)C(=O)C2C1 (stereo unspecified) | -16 | 103 | 94 | .
Cc1ccc(N2CCN(c3ccccc3)CC2)nn1 | -18 | 91 | 83 | 101
CCOCc1cnc(C)nc1NCC(=O)c1c(C)[nH]c2cc(C)ccc12 | -12 | 100 | 92 | 97&95
CCOC(=O)c1[nH]c(C)c(CCC(=O)N2CCN(c3ccc(OC)cc3)CC2)c1C | . | 103 | 79 | 107
CCC1CN(S(=O)(=O)c2ccc3c(c2)NC(=O)CC(=O)N3)c2cc(Cl)ccc2O1 (stereo unspecified) | . | 143 | 93 | 110
CC(C)S(=O)(=O)c1cnc(COc2ccc(C(C)(C)C)cc2)nc1N | 4 | 89 | 96 | 95
Cc1nn(C)c2c1c(-c1ccccc1)cc(=O)n2CC(=O)Nc1ccccc1C(F)(F)F | . | 101 | 76 | 106
